# From PubChem
# HTT prom inh: Primary qHTS for Identification of Small Molecule Inhibitors of Huntingtin Promoter Activity. AID 1508623, 2021. HEK293 HTT promoter firefly luciferase reporter (activity 0% = vehicle and -100% = no light), 24 h. actives 0.93% (n = 48,000). Potency, µM (top dose mostly 57.5 µM), inactives show top-dose activity change, negative = inhibition, most hits filed as inhibitors; active = well fitted inhibition curve with a large enough effect; inconclusive = small, poorly fitted or top-dose-only effect; inactive = no such curve, though single readings can be large or run the other way; note: nearly all actives have a fitted effect of over 50% in size
#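 Firefly luciferase signal from promoter-reporter HEK293 cells was scaled between vehicle (0%) and zero RLU (-100%). Compounds were tested at final concentrations of up to 57.5 uM over 24 h at 37 degrees C. PTC124 at 50 uM final served as control inhibitor.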
# PMP22 txn: Cell-based coincidence reporter assay to measure PMP22 gene transcription in S16 Pmp22-F2sN cells - Primary screen. S16 Pmp22-F2sN Schwann cells (luciferase reporters placed in the Pmp22 gene), FLuc/NLuc coincidence luminescence, 24 h. Potency, µM (highest dose often 57.5 µM), for inactives: at the top dose activity change, negative = inhibition, hits mostly inhibitors. actives 2% (n = 43,000). AID 1508649, 2021; active = clear falling dose curves in both reporters; inconclusive = both reporters move, but less clearly or upward; inactive = either reporter flat; the % is the NLuc reporter signal; note: % is set by controls: 0 for no effect and ±100 for the full control effect; some results filed as inactive show a strong effect at the top dose
#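 Schwann cells carrying the coincidence reporter were exposed to library compounds for 24 h at 37C, then lysed and read for FLuc and, after quenching, NLuc luminescence on a CCD imager.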
# Numbers without * were called inactive; ? = inconclusive; . = not tested or not shown; [ ] = dose if it differs, or a comment. Potency is the fitted concentration of half-maximal effect. Not a hit list, and some 2.7% of all compounds hit somewhere here.
molecule | HTT prom inh | PMP22 txn
Cc1ccc(Cl)cc1NC(=O)c1cccc(NC(=O)N2CCSc3ncccc32)c1 | ? | ?
CCc1ccccc1NC(=O)C1CCN(c2nc3ccccc3[nH]2)CC1 | 8% | 4%
CCc1nn(CC(=O)NCc2ccc(C)cc2)c(=O)c2cc3occc3n12 | -11% | -1%
O=C(Nc1ccc2nc(SCC(=O)N3CCc4ccccc43)sc2c1)c1ccccc1F | -3% | ?
Cc1ccc(NC(=O)C2CCCN(S(=O)(=O)c3ccc4c(c3)CCCC(=O)N4)C2)cc1N(C)C (stereo unspecified) | ? | ?
CCOC(=O)c1c(C)n(-c2ccccc2)c2ccc(OC(=O)c3ccccc3Cl)cc12 | -4% | ?
CCOC(=O)c1c(SCC(=O)Nc2cccc(C)c2C)nc(=O)[nH]c1C | -20% | 22%
COc1ccc(Cl)cc1NC(=O)CN1C(=O)CSc2ccc(S(=O)(=O)N3CCCC3)cc21 | ? | ?
COc1ccc(OC(=O)CSc2nnc(-c3ccc(F)cc3)o2)cc1 | 3% | -13%
CCc1cccc(C)c1NC(=O)Cn1cc2c(n1)CCCCC2 | ? | -23%
Cc1ccc(S(=O)(=O)C(CNC(=O)c2ccccc2F)c2cccs2)cc1 (stereo unspecified) | -22% | -6%
O=C1CC(c2ccccc2)Cc2[nH]c(=O)c(C(=O)Nc3cccc(F)c3)cc21 (stereo unspecified) | -27% | 0%

# (cont.)
molecule | HTT prom inh | PMP22 txn
CCN(CC)c1ccc(CN(C(=O)Cc2coc3ccc(C)cc23)C2CCS(=O)(=O)C2)cc1 (stereo unspecified) | ? | ?
CCOc1ccc(CC(=O)NCCc2csc(-c3ccc(C(F)(F)F)cc3)n2)cc1 | -8% | 7%
COc1ccc(NC(=O)C2=C(C)Nc3ncnn3C2c2sccc2C)cc1 (stereo unspecified) | -11% | 13%
Cc1nn2c(-c3ccco3)ccnc2c1-c1ccc(Cl)cc1 | 27% | ?
COc1cccc(C(=O)NCc2nc(-c3ccccc3)no2)c1OC | -15% | -15%
Cc1sc2c(c1C)c(=O)n(-c1ccc(Cl)cc1)c(=O)n2Cc1cc(=O)n2cc(Br)ccc2n1 | 0% | 0%
CSc1ccc(CNC(=O)c2sc3ncnc(N(C)C4CCCCC4)c3c2C)cc1 | -29% | ?
COc1cccc(-n2c(SCC(=O)c3ccc(Cl)cc3)nc3c([nH]c4ccccc43)c2=O)c1 | ? | 10µM*
CC(C)CCn1c(=O)c2sccc2n2c(CCCC(=O)NC3CCC(C)CC3)nnc12 (stereo unspecified) | -18% | -11%
CCCSc1ncc(Cl)c(C(=O)Nc2c(C(=O)c3ccc(F)cc3)oc3ccccc23)n1 | -11% | 1%
CCC(=O)N1CCc2cc(Br)cc(S(=O)(=O)CCC(=O)N3CCN(c4ccccc4F)CC3)c21 | -6% | -25%
Cc1ccc(CNC(=O)c2nc(SCc3ccc(F)cc3)ncc2Cl)cc1 | -6% | ?

# (listing goes on)
molecule | HTT prom inh | PMP22 txn
CCCCOc1c(C(=O)c2c(F)cc(C)cc2F)cnc2n[nH]cc12 | ? | .
CCc1ccc(C2C(C(=O)Nc3ccc(Cl)cc3)=C(C)Nc3ncnn32)cc1 (stereo unspecified) | -27% | -22%
CCCCN(c1ccccc1)S(=O)(=O)c1cc2c3c(c1)C(C)C(=O)N3CCC2 (stereo unspecified) | ? | ?
Cc1ccc(CCNC(=O)c2cc3c(s2)-c2ccccc2OC3)cc1 | ? | ?
CCCCN(CC)C(=O)CSc1nc2ccccc2c(=O)n1Cc1ccco1 | ? | -38%
Cc1ccc(NC(=O)Cn2cc(S(=O)(=O)c3ccc(F)cc3)c(=O)c3cc4c(cc32)OCO4)cc1 | -17% | 1%
COc1ccccc1CNC(=O)c1ccc2nc(-c3ccccc3)c(-c3ccccc3)nc2c1 | -11% | -11%
Cc1cccc(N2CCN(C(=O)Cn3c(=O)c4cccn4c4ccc(F)cc43)CC2)c1C | -4% | ?
COc1ccc(NC(=O)CNS(=O)(=O)c2cccs2)c(OC)c1 | 4% | 17%
COC(=O)c1ccc(NC(=O)C(=O)NCC(c2cccnc2)N2CCc3ccccc32)cc1 (stereo unspecified) | ? | ?
CNS(=O)(=O)c1cn(CC(=O)N2CCN(c3ccc(OC)cc3)CC2)cc1S(=O)(=O)NC | 12% | 0%
COc1ccc(CCNC(=O)Cn2cc(C(=O)c3ccccc3)c(=O)c3ccc(C)nc32)cc1OC | -5% | 9%

# Further records follow.
molecule | HTT prom inh | PMP22 txn
COc1ccc(CCNC(=O)c2ccc(Cn3c(SCC(=O)NCCC(C)C)nc4cc5c(cc4c3=O)OCO5)cc2)cc1OC | -13% | ?
CCC(C)NC(=O)Cn1c(=O)n(Cc2ccc(C(=O)NCc3ccc(C)cc3)cc2)c(=O)c2ccccc21 (stereo unspecified) | -14% | ?
COc1ccc(C(=O)c2oc3ccccc3c2NC(=O)COc2ccccc2)cc1 | 5% | -39%
CCOC(=O)c1cc2c(=O)n3ccccc3nc2n(Cc2ccco2)c1=NC(=O)c1ccc(C)c(C)c1 | -13% | ?
CCCCC(=O)Oc1ccc2oc(-c3ccc(OC)cc3)cc(=O)c2c1 | 89%[activator] | -27%
COc1ccc(-n2nc(C(=O)Nc3cc(OC)c(OC)c(OC)c3)c(=O)n(C)c2=O)cc1 | 7% | -1%
CCOc1cc2[nH]c(=O)n(Cc3ccc(C(=O)NCCN(CC)CC)cc3)c(=O)c2cc1OCC | -13% | 7%
O=C(Cc1ccc(Cl)cc1)Nc1ccc2nn(-c3ccc(Cl)cc3)nc2c1 | 1% | 1%
COCCn1c(C)cc(O)c(C(c2ccccc2)N2CCN(c3ccccc3F)CC2)c1=O (stereo unspecified) | -7% | -28%
Cn1c(=O)c2sccc2n2c(CCCC(=O)NCc3ccccc3)nnc12 | -5% | -3%
Cc1nc2c(-c3ccccc3)c(C)nn2c(C)c1CCC(=O)Nc1ccccc1F | ? | -29%
O=c1cc(-c2ccccc2)nc(SCc2nc(-c3ccc(Cl)cc3)no2)[nH]1 | 8% | 3%

# New compounds follow.
molecule | HTT prom inh | PMP22 txn
O=C1[C@H](Cc2ccc(O)cc2)N2C(=O)CCN(C(=O)NCc3ccccc3)[C@H]2CN1Cc1cccc2ccccc12 | ? | .
CCc1ccc2oc(C(=O)N(Cc3ccc(N(C)C)cc3)Cc3ccco3)c(C)c2c1 | -27% | ?
CCS(=O)(=O)NCCc1csc2nc(-c3ccc(OC)cc3)nn12 | 4% | 3%
O=C(C1CCN(S(=O)(=O)c2cccs2)CC1)N1CCN(c2cccc(Cl)c2)CC1 | -5% | 0%
Oc1c(I)cc(I)c2cccnc12 | -2% | .
CN(Cc1ccccc1)C(=O)c1ccc2c(c1)N(Cc1ccccc1Cl)C(=O)c1ccccc1S2 | ? | ?
Cc1ccccc1-c1nc(CN2CCC(C(=O)NCCc3ccccc3)CC2)c(C)o1 | -4% | ?
COc1ccc(OC)c(NC(=O)Cn2ccn(-c3ccc(OC)c(OC)c3)c(=O)c2=O)c1 | -18% | -22%
CCOc1ccc(CCNC(=O)c2ccc(-n3c(C)cc4c3CCC(C)C4)cc2)cc1OCC (stereo unspecified) | -21% | ?
COc1cccc(N2CCN(C(=O)c3c(C)oc4ncnc(N5CCOCC5)c34)CC2)c1 | -11% | -16%
C=Cc1ccc(Cn2c(C(=O)O)c(CNCc3cc(OC)ccc3OC)c3ccc(C)cc32)cc1 | -5% | ?
COc1cccc(-c2nn(C)c3sc(C(=O)N4CCN(c5cccc(C)c5)C(C)C4)cc23)c1 (stereo unspecified) | ? | ?

# The list continues.
molecule | HTT prom inh | PMP22 txn
Cc1ccccc1C(=O)Nc1nc2nc(-c3ccccc3)cc(=O)n2[nH]1 | -17% | ?
O=C(CSc1nnc2ccc3ccccc3n12)Nc1ccccc1Cl | 47%[activator] | -1%
COc1ccc(CNC(=O)c2cc3sccc3n2C)cc1 | -1% | 14%
COc1ccc(OC)c(CNC(=O)C2CCN(S(=O)(=O)N3CCCCC3)CC2)c1 | -17% | 1%
O=C(CNC(=O)c1ccccc1)OCc1cc(=O)n2ccsc2n1 | -9% | -8%
Cc1sc2ncn(CC(=O)N3CCN(c4ccc(F)cc4)CC3)c(=O)c2c1S(=O)(=O)N1CCN(c2ncccn2)CC1 | -10% | -2%
CCOC(=O)c1ccc(NC(=O)COCc2cc(-c3ccc4c(c3)OCO4)on2)cc1 | -8% | -2%
Cc1cc2c(cc1C1(c3ccc(C(=O)O)cn3)CC1)C(C)(C)CCC2(C)C | -3% | .
CCc1ccc(NC(=O)c2cc(S(=O)(=O)NC3CCCCCC3)ccc2F)cc1 | ? | ?
COc1cccc(CNC(=O)Cc2c(C)c3c(cc(C)c4c(C)c(C)oc43)oc2=O)c1 | -1% | -2%
COc1ccc(NC(=O)Nc2cccc(-c3cn4cccnc4n3)c2)cc1 | 25% | ?
CCn1c(C(=O)Nc2ccccc2C(=O)OC)cc2sc(Cl)cc21 | -11% | -3%

# 25 of these compounds in a different format.
# Values run as follows: HTT prom inh, PMP22 txn
Cc1ccc(Cl)cc1NC(=O)c1cccc(NC(=O)N2CCSc3ncccc32)c1
→ ?, ?
CCc1ccccc1NC(=O)C1CCN(c2nc3ccccc3[nH]2)CC1
→ 8%, 4%
CCc1nn(CC(=O)NCc2ccc(C)cc2)c(=O)c2cc3occc3n12
→ -11%, -1%
O=C(Nc1ccc2nc(SCC(=O)N3CCc4ccccc43)sc2c1)c1ccccc1F
→ -3%, ?
Cc1ccc(NC(=O)C2CCCN(S(=O)(=O)c3ccc4c(c3)CCCC(=O)N4)C2)cc1N(C)C (stereo unspecified)
→ ?, ?
CCOC(=O)c1c(C)n(-c2ccccc2)c2ccc(OC(=O)c3ccccc3Cl)cc12
→ -4%, ?
CCOC(=O)c1c(SCC(=O)Nc2cccc(C)c2C)nc(=O)[nH]c1C
→ -20%, 22%
COc1ccc(Cl)cc1NC(=O)CN1C(=O)CSc2ccc(S(=O)(=O)N3CCCC3)cc21
→ ?, ?
COc1ccc(OC(=O)CSc2nnc(-c3ccc(F)cc3)o2)cc1
→ 3%, -13%
CCc1cccc(C)c1NC(=O)Cn1cc2c(n1)CCCCC2
→ ?, -23%
Cc1ccc(S(=O)(=O)C(CNC(=O)c2ccccc2F)c2cccs2)cc1 (stereo unspecified)
→ -22%, -6%
O=C1CC(c2ccccc2)Cc2[nH]c(=O)c(C(=O)Nc3cccc(F)c3)cc21 (stereo unspecified)
→ -27%, 0%
CCN(CC)c1ccc(CN(C(=O)Cc2coc3ccc(C)cc23)C2CCS(=O)(=O)C2)cc1 (stereo unspecified)
→ ?, ?
CCOc1ccc(CC(=O)NCCc2csc(-c3ccc(C(F)(F)F)cc3)n2)cc1
→ -8%, 7%
COc1ccc(NC(=O)C2=C(C)Nc3ncnn3C2c2sccc2C)cc1 (stereo unspecified)
→ -11%, 13%
Cc1nn2c(-c3ccco3)ccnc2c1-c1ccc(Cl)cc1
→ 27%, ?
COc1cccc(C(=O)NCc2nc(-c3ccccc3)no2)c1OC
→ -15%, -15%
Cc1sc2c(c1C)c(=O)n(-c1ccc(Cl)cc1)c(=O)n2Cc1cc(=O)n2cc(Br)ccc2n1
→ 0%, 0%
CSc1ccc(CNC(=O)c2sc3ncnc(N(C)C4CCCCC4)c3c2C)cc1
→ -29%, ?
COc1cccc(-n2c(SCC(=O)c3ccc(Cl)cc3)nc3c([nH]c4ccccc43)c2=O)c1
→ ?, 10µM*
CC(C)CCn1c(=O)c2sccc2n2c(CCCC(=O)NC3CCC(C)CC3)nnc12 (stereo unspecified)
→ -18%, -11%
CCCSc1ncc(Cl)c(C(=O)Nc2c(C(=O)c3ccc(F)cc3)oc3ccccc23)n1
→ -11%, 1%
CCC(=O)N1CCc2cc(Br)cc(S(=O)(=O)CCC(=O)N3CCN(c4ccccc4F)CC3)c21
→ -6%, -25%
Cc1ccc(CNC(=O)c2nc(SCc3ccc(F)cc3)ncc2Cl)cc1
→ -6%, ?
CCCCOc1c(C(=O)c2c(F)cc(C)cc2F)cnc2n[nH]cc12
→ ?, .

# Next part:
molecule | HTT prom inh | PMP22 txn
O=C(CNS(=O)(=O)c1cccs1)N1CCN(c2ccccc2F)CC1 | 28% | 0%
COc1ccc(S(=O)(=O)NCCc2sc(-c3ccccc3)nc2C)cc1OC | -13% | -13%
Cc1ccc(OCCSc2nnc(-c3cccs3)o2)cc1 | -24%[11.5 µM] | -5%
Fc1ccc(N2CCN(c3nc4ccccc4c4nc(-c5cccnc5)nn34)CC2)cc1 | 3% | 6%
CC(=O)N1CCN(c2nc3c(C)ccc(Cl)c3s2)CC1 | -16% | 27%
Cc1nnc2c3ccccc3nc(Nc3ccc(F)cc3Cl)n12 | 13% | 1%
COc1cccc(N(CC(=O)N2CCC(C)CC2)S(=O)(=O)c2ccc(C)cc2)c1 | -24% | -16%
O=C(CCn1c(=O)c2sccc2n(Cc2ccc(F)cc2Cl)c1=O)NCc1ccc2c(c1)OCO2 | -6% | -4%
COc1ccc(OC)c(S(=O)(=O)NCc2cccn2Cc2cccc(C)c2)c1 | -14% | ?
